VACV mCherry inh: qHTS for Stage-Specific Inhibitors of Vaccinia Orthopoxvirus: mCherry Reporter Primary qHTS. 0.63% of 310,000 active. Vaccinia virus mCherry reporter infection, fluorescence; about a quarter of the inactives have no number. Potency, µM (highest dose often 36.5 µM), for inactives: at the top dose activity change, negative = inhibition, usual class: inhibitors. AID 720579, 2013; active = well fitted inhibition curve with a large enough effect; inconclusive = small, poorly fitted or top-dose-only effect; inactive = no such curve, though single readings can be large or run the other way; tested in A549 cells; note: nearly all actives have a fitted effect of over 35% in size; inactives centre near -10
Vaccinia Venus: qHTS for Stage-Specific Inhibitors of Vaccinia Orthopoxvirus: Venus Reporter Primary qHTS; AID 720580, 2013; Potency, µM (titrated, usually from 36.5 µM), inactives show at the highest dose activity change, negative = inhibition, actives largely listed as inhibitors; 0.46% of 330,000 active; Vaccinia virus Venus reporter expression, fluorescence; active means well fitted inhibition curve with a large enough effect; inconclusive means small, poorly fitted or top-dose-only effect; inactive means no such curve, though single readings can be large or run the other way; tested in A549 cells; note: nearly all actives have a fitted effect of over 30% in size; inactives centre near -10
An asterisk follows results filed as active; i = inactive; ? = inconclusive; nt = no result given; & = joins results of further samples; [ ] = dose if it differs, or a comment. % is set by controls: 0 for no effect and ±100 for the full control effect; potency is the fitted concentration of half-maximal effect.

1: O=C(CCCOc1ccc(Cl)cc1Cl)NCC1CCCO1 (stereo not given)
2: CC(C)COc1ccc(C(=S)N2CCCC2)cc1
3: O=c1cc(-c2ccccc2)n(S(=O)(=O)c2ccccc2)o1
4: CCNc1ccc(S(=O)(=O)C(F)(F)F)cc1NC(=O)C12CCC(CC1)C2
5: CNC(=O)CSc1nnc(-c2ccco2)n1-c1cccc(C)c1C
6: Cc1ccccc1OC(C)c1nc(-c2ccccc2)no1 (stereo not given)
compound no. | 1 | 2 | 3 | 4 | 5 | 6
VACV mCherry inh | nt | i | -4.7% | -17.1% | i | -4.8%
Vaccinia Venus | -27.6% | -5.2% | -12.1% | -9.8% | -16.9% | -8.7%

7: O=C1NC2(CCCCCC2)C(=O)N1Cc1ccccc1Br
8: CC1CCc2c(sc3ncn(N)c(=N)c23)C1 (stereo not given)
9: CCOC(=O)c1cc(-c2ccccc2)sc1NC(=O)c1ccc(OC)cc1
10: FC(F)(F)c1cnc(COc2cc(Cl)cc(Cl)c2)c(Cl)c1
11: CCCn1c(=O)[nH]c(=O)c2c1nc(-c1ccc(OC(F)F)c(OC)c1)n2CCOC
12: O=C(COc1ccc2ccc(=O)oc2c1)Nc1c(Cl)cccc1C(F)(F)F
compound no. | 7 | 8 | 9 | 10 | 11 | 12
VACV mCherry inh | i | ? | -22.7%[1.46 µM] | -2.9% | nt | i
Vaccinia Venus | -2.9% | 12.3% | -7.2% | 16.9% | -15.9% | -5.2%

13: O=C(NCc1ccco1)C1(c2ccccc2)CCCC1
14: c1cncc(-c2noc(C34CC5CC(CC(C5)C3)C4)n2)c1
15: Cc1cccn2c(=O)c(C=NCCO)c(NCc3ccco3)nc12
16: CCc1ccc(CNC(=O)c2ccc(NC(=O)N3CC(C)Sc4ccccc43)cc2)cc1 (stereo not given)
17: Cc1ccccc1C(=O)c1cccn1CC(=O)O
18: Cn1nc([N+](=O)[O-])nc1Oc1ccc(C(C)(C)C)cc1
compound no. | 13 | 14 | 15 | 16 | 17 | 18
VACV mCherry inh | i | -16.5% | -18.4% | i | nt | i
Vaccinia Venus | -14.9% | -9.9% | -15.5% | -12.0% | -9.8% | -8.1%

19: Cc1ccc(S(=O)(=O)N2CCC(=O)N(CCOCc3cccc(C(F)(F)F)c3)CC2)cc1
20: CC(C)(C)c1ccc(-c2nc(NCc3cccnc3)c3ccccc3n2)cc1
21: CNC(=O)c1c[nH]c2ccc(S(=O)(=O)Nc3cccc(Cl)c3C)cc2c1=O
22: CC1(C(=O)NS(=O)(=O)c2ccc(Cl)cc2)CCN1C(=O)c1ccco1 (stereo not given)
23: Cc1ccc(C(=O)C(C)N(C(=O)c2ccc(Cl)cc2Cl)N2C(=O)CCCC2=O)cc1 (stereo not given)
24: COC(=O)c1c(NC(=O)c2ccc(S(=O)(=O)N3CCOCC3)cc2)sc2c1CCN(C(C)C)C2
compound no. | 19 | 20 | 21 | 22 | 23 | 24
VACV mCherry inh | -25.4% | -15.4% | -15.8% | 28.3% | -2.8% | -8.1%
Vaccinia Venus | -25.9% | -16.8% | -16.8% | 1.6% | 2.1% | -21.6%

25: CCCCC(=O)Nc1ccc(NC(=O)c2cccs2)cn1
26: COc1ccc2c(c1)CN(C)S(=O)(=O)c1ccccc1-2
27: Brc1ccc(-c2csc(NC3=NCCCCC3)n2)cc1
28: CCc1ccc(NC(=O)CCc2nnc3ccc(N4CCC5(CC4)OCCO5)nn23)cc1
29: CC(=O)c1cnc2cc(-c3cccc(Br)c3)nn2c1C
30: COC(=O)c1sc(NC(=O)COc2c(C)cccc2C)nc1C
compound no. | 25 | 26 | 27 | 28 | 29 | 30
VACV mCherry inh | 1.8% | i | i | -14.5% | i | 0.9%
Vaccinia Venus | -5.7% | 2.8% | -8.3% | -6.1% | -4.3% | -9.5%

31: CCOc1cc(-c2nc(C)c(C(C)=O)n2O)ccc1OCC(=O)Nc1cccc(C)c1
32: Cc1cc(Cl)ccc1N(CC(=O)NCc1ccc2c(c1)OCO2)S(C)(=O)=O
33: Cc1c(C(=O)N/N=C/c2ccccc2)sc(=S)n1C
34: CC(C)(C)OC(=O)N(CCc1ccccc1)Cc1ccc(OCc2cccc(NC(=O)C3CCC3)c2)cc1
35: CCC(C)C(CO)NCCCn1cnc2c(SC)ncnc21 (stereo not given)
36: S=C(NCc1ccco1)N1CCN(c2ccccn2)CC1
compound no. | 31 | 32 | 33 | 34 | 35 | 36
VACV mCherry inh | -14.4% | -16.0% | nt | -10.0% | i | 0.5%
Vaccinia Venus | -5.3% | -15.8% | -7.1% | -19.2% | -3.6% | 6.3%

37: Cc1ccc(C(=O)Nc2ccccc2C(=O)N2CC3(C)CC2CC(C)(C)C3)cc1 (stereo not given)
38: CCOC(=O)C(C(=O)Nc1ccc(C)cc1)C1CCCCC1 (stereo not given)
39: CCc1nnc(NC2=NCCC2)s1
40: O=C(C[C@H]1C=C[C@@H](NS(=O)(=O)c2ccccc2)[C@@H](CO)O1)NCc1ccc(Cl)c(Cl)c1
41: CCN(CC)CCCN=C1N[C@@H](c2cccc(C(F)(F)F)c2)C(C(=O)OC)=C(C)N1CC
42: N=c1c(C(=O)NCCN2CCOCC2)cc2c(=O)n3ccccc3nc2n1CCCN1CCOCC1
compound no. | 37 | 38 | 39 | 40 | 41 | 42
VACV mCherry inh | -23.7% | nt | -1.2% | -4.0% | 15.8% | -10.5%
Vaccinia Venus | -16.7% | ? | -5.1% | -22.3% | -9.0% | -1.3%

43: CCC1(CC)C(=O)N(C)C(=O)NC1=NCc1ccccc1
44: CC(=O)C1=C(c2ccccc2)NC(=O)NC1c1ccc(O)c(Cl)c1 (stereo not given)
45: Cc1cccc(NC(=O)CN2CCCN(S(=O)(=O)c3ccc(Br)s3)CC2)c1
46: CN(CCOc1ccccc1)CC(O)COc1ccccc1 (stereo not given)
47: O=C1CSC(=S)N1N=Cc1c(O)ccc2ccccc12
48: Cc1ccccc1NS(=O)(=O)c1cc(C(=O)NCCC2=CCCCC2)ccc1C
compound no. | 43 | 44 | 45 | 46 | 47 | 48
VACV mCherry inh | nt | ? | -25.9% | ? | -3.7% | ?
Vaccinia Venus | -12.8% | -11.7% | -21.1% | 1.8% | 44.1%[activator] | -25.0%

49: CCC(C)Cn1cnc2c(SCc3ccccn3)nc(N)nc21 (stereo not given)
50: O=c1[nH]c2ccccc2nc1Cc1ccc(Cl)cc1
51: O=C(c1ccc(Cl)c(S(=O)(=O)N2CCCCCC2)c1)N1CCN(CCO)CC1
52: Cc1csc2nc(SCC(=O)Nc3ccccc3F)[nH]c(=O)c12
53: CCC(C)(C)C1CCC2(CC1)NC(=O)N(CC(=O)N(C)CCOc1ccc(Cl)cc1)C2=O (stereo not given)
54: COc1ccc(CN2CCN(C(=O)c3ccc4nc(N5CCOCC5)sc4c3)CC2)c(OC)c1OC
compound no. | 49 | 50 | 51 | 52 | 53 | 54
VACV mCherry inh | i | 5.2% | -7.5% | i | i | -16.6%
Vaccinia Venus | -5.1% | -3.1% | -3.0% | -12.1% | -13.4% | -6.4%

Molecules above containing a furan ring, fused or not, in the order listed:
5: CNC(=O)CSc1nnc(-c2ccco2)n1-c1cccc(C)c1C
13: O=C(NCc1ccco1)C1(c2ccccc2)CCCC1
15: Cc1cccn2c(=O)c(C=NCCO)c(NCc3ccco3)nc12
22: CC1(C(=O)NS(=O)(=O)c2ccc(Cl)cc2)CCN1C(=O)c1ccco1 (stereo not given)
36: S=C(NCc1ccco1)N1CCN(c2ccccn2)CC1
compound no. | 5 | 13 | 15 | 22 | 36
VACV mCherry inh | i | i | -18.4% | 28.3% | 0.5%
Vaccinia Venus | -16.9% | -14.9% | -15.5% | 1.6% | 6.3%

The results go on:
55: O=C1C=CC(=O)N1Cc1ccccn1
56: O=C1CCCCCN1C(=O)c1ccccc1
57: O=C1NN(c2ccccc2)C(=O)/C1=C/c1coc2ccccc2c1=O
58: CCOc1ccc(/C=N/NC(=O)c2ccc(Cn3cc(Br)cn3)o2)cc1
59: COc1ccc(-c2cc(C(=O)N3CCN(c4ccccn4)CC3)c3ccccc3n2)cc1
60: Cc1cc(N)n2ncc(-c3ccc(F)cc3)c2n1
compound no. | 55 | 56 | 57 | 58 | 59 | 60
VACV mCherry inh | -7.9% | i | -11.2% | -22.7% | -22.5% | ?
Vaccinia Venus | -2.7% | -4.6% | -5.2% | -14.0% | -29.8% | -26.8%

The last 4 records of the section above are carried over, then new ones follow.
57: O=C1NN(c2ccccc2)C(=O)/C1=C/c1coc2ccccc2c1=O
58: CCOc1ccc(/C=N/NC(=O)c2ccc(Cn3cc(Br)cn3)o2)cc1
59: COc1ccc(-c2cc(C(=O)N3CCN(c4ccccn4)CC3)c3ccccc3n2)cc1
60: Cc1cc(N)n2ncc(-c3ccc(F)cc3)c2n1
61: CCOc1ccc2nc(SCC(=O)c3ccc(C)s3)sc2c1
62: O=C(Nc1ccc2ccccc2c1)C(c1ccccc1)n1c(=O)c(-c2cc3ccccc3[nH]2)nc2ccccc21 (stereo not given)
63: CNc1c(NS(=O)(=O)c2ccc(C3CCCCC3)cc2)c(=O)oc2ccccc12
64: CNC(=S)N/N=C/c1cc(C)n(-c2ccc(Cl)c(Cl)c2)c1C
65: CN(C(=O)CCc1ccccc1)c1nnc(-c2ccncc2)s1
66: Cc1ccc2cc(CN(Cc3ccccc3)Cc3nnnn3C3CCCC3)c(=O)[nH]c2c1
compound no. | 57 | 58 | 59 | 60 | 61 | 62 | 63 | 64 | 65 | 66
VACV mCherry inh | -11.2% | -22.7% | -22.5% | ? | -24.5% | -5.7% | -13.7% | -2.6% | -17.3% | -16.7%
Vaccinia Venus | -5.2% | -14.0% | -29.8% | -26.8% | -28.7% | -12.8% | -5.0% | -24.2% | -13.5% | ?

67: CC(=O)N1CCc2cc(Br)cc(S(=O)(=O)CCC(=O)N3CCN(c4ccccc4)CC3)c21
68: O=C1NCN(c2ccccc2)C12CCN(C(c1ccnc3ccccc13)c1nnnn1-c1ccc3c(c1)OCCO3)CC2 (stereo not given)
69: COc1ccc(NC(=O)C2c3ccccc3OCC(=O)N2Cc2ccc3c(c2)OCO3)cc1 (stereo not given)
70: COc1ccc(NS(=O)(=O)c2ccc3c(c2)Cc2ccccc2-3)cn1
71: O=S(=O)(c1cccc(C(F)(F)F)c1)N1CCC(c2nc3ccccc3[nH]2)CC1
72: O=C(NCc1ccco1)c1ccc2ccccc2c1
compound no. | 67 | 68 | 69 | 70 | 71 | 72
VACV mCherry inh | -6.9% | 5.4% | i | -10.0% | 14.1% | -24.7%
Vaccinia Venus | -7.7% | -15.9% | 6.4% | -18.0% | -9.6% | -6.8%

73: Cc1cc(O)c(C(=O)/C=C/c2ccccc2Br)c(=O)o1
74: CCCS(=O)(=O)NCCc1csc2nc(-c3ccc(OC)cc3)nn12
75: COC(=O)C1C2c3ccccc3C(c3ccccc32)C1(C)C(=O)OC (stereo not given)
76: CCOc1ccccc1CN1C(=O)c2ccccc2C1C(=O)NC1CCCCCC1 (stereo not given)
77: Nc1ccc(N2N=C(N3CCCC3)CC2=O)cc1
78: N#CC[C@H](Cc1ccccc1)N1CCN(Cc2ccccc2)CCC1=O
compound no. | 73 | 74 | 75 | 76 | 77 | 78
VACV mCherry inh | i | -11.9% | i | -2.9% | i | -21.8%
Vaccinia Venus | 6.5% | -5.4% | -18.9% | -1.5% | -3.6% | -6.0%&-1.7%

79: O=C(CN1CCN(Cc2ccc3c(c2)OCO3)CC1)Nc1ccc(N2CCOCC2)cc1
80: c1ccc(CN2CCN(C(c3ccccc3)c3nnnn3Cc3ccccc3)CC2)cc1 (stereo not given)
81: COc1cc(C(C[N+](=O)[O-])c2c(C)[nH]c3ccccc23)ccc1O (stereo not given)
82: CN(c1ccc(C(=O)N2CCCCC2)cc1)S(=O)(=O)c1ccccc1
83: COC(=O)/C=C1\SC(=NC(=O)c2cccc(Cl)c2)NC1=O
84: Cc1ccc(C)c(N/C(N)=N/c2nc(C)cc(C)n2)c1
compound no. | 79 | 80 | 81 | 82 | 83 | 84
VACV mCherry inh | i | -29.3% | 1.4% | -24.2% | -27.6% | -28.2%
Vaccinia Venus | -5.2% | -20.6% | 2.9% | -20.8% | -18.5% | -21.9%

85: CCn1ccc2cc(S(=O)(=O)N3CCC(C(=O)NCC(C)c4ccccc4)CC3)ccc21 (stereo not given)
86: CCCCCNC(=O)C1CCC(Cn2c(=O)c3sccc3n(CC(=O)NCc3cccc(OC)c3OC)c2=O)CC1 (stereo not given)
87: CC(=O)c1ccccc1NC(=O)CCN1C(=O)C2CCCCC2C1=O (stereo not given)
88: COc1cccc(CSc2nnc(CSc3nc4nc(C)cc(C)n4n3)s2)c1
89: CCC(=O)C1CCCN(C(=O)c2ccc(OC)c(OC3CCN(C(C)=O)CC3)c2)C1 (stereo not given)
90: O=C(N/N=C/c1ccc(C(F)(F)F)cc1)c1ccc(O)cc1
compound no. | 85 | 86 | 87 | 88 | 89 | 90
VACV mCherry inh | -9.9% | -7.7% | -11.9% | -19.4% | i | -3.0%
Vaccinia Venus | -4.1% | -5.9% | -3.2% | -12.8% | 0.4% | -21.0%

Source: PubChem BioAssay (National Center for Advancing Translational Sciences (NCATS))
